Screening data deposited in PubChem by several laboratories.
Env fusion inh – HIV envelope-mediated fusion inhibition; HeLa-JRFL Env/CEM21 cell fusion, luciferase; inhibition, % at 12.3 µM; 360,000 compounds, 1.1% hits;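 active = mean replicate inhibition score of at least 50 and every replicate individually at or above 50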;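 note: 0% = plate neutral controls and 100% = maraviroc near 300 nM; one replicate is shown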
PABP polyA inh – PABP-poly(A) binding inhibition; PABP-poly(A) RNA binding, fluorescence polarization; inhibition, % at 35 µM; 290,000 compounds, 1% hits; AID 2014;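 active = 50% or more with normal probe brightness, or confirmed in later tests; about a fifth of its hits are not listed in these tables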;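 note: calls also rest on retests at 20 µM and on dose response follow-up; controls were probe without protein and protein plus probe with vehicle; some compounds called inactive have numbers as strong as hits; many hits fall short of the cut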
Target sequence (P11940 whole entry, looked up): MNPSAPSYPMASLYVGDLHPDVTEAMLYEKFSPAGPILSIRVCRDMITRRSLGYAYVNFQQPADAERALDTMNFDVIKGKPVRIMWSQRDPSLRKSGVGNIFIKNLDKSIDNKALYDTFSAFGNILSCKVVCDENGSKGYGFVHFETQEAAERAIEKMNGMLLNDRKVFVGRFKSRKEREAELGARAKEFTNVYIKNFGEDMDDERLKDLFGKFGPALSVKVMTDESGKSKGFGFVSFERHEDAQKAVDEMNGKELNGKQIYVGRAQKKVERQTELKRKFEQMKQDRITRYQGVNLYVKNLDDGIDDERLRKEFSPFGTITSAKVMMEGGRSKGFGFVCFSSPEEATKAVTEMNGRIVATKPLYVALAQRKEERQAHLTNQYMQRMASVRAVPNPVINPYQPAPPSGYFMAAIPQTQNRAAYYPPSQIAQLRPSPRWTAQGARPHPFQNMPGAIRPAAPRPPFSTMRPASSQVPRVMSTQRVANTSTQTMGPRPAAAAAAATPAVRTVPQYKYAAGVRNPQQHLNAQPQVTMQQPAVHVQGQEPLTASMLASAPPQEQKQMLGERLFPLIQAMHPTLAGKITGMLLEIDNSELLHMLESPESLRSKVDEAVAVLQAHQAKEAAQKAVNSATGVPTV
eIF4H FP inh – inhibitors of RNA binding by human eIF4H; Q15056; eIF4H fluorescence polarization binding assay; inhibition, % at 35 µM; 290,000 compounds, 0.94% hits; AID 2012;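 active = 50% or more with normal probe brightness, or confirmed in later tests; about a fifth of its hits are not listed in these tables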;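 note: calls also rest on retests at 20 µM and on dose response follow-up; 0% = protein and probe with vehicle and 100% = probe without protein; strong numbers were not always called active; many hits fall short of the cut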
MT1-MMP act inh – inhibitors of human MT1-MMP activation. P50281. HT1080 RFP-PRO-GFP cells, GFP/RFP ratio fluorescence, overnight; percent of plate control window, DMSO zero. GFP/RFP ratio change, % at 20 µM. 360,000 compounds, 0.061% hits. AID 651647;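 active = GFP/RFP ratio change of at least 30% with cell ATP level not reduced by more than half and red fluorescence within 50% of control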; note: strong numbers were not always called active
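Assay system: HT1080 RFP-PRO-GFP cells. Benchmarks: DMSO vehicle wells and RFP-L50D-GFP reporter cell wells. Times: overnight cell settling, then overnight compound exposure, 37 °C, 5% CO2. Compound: 20 µM single dose, 1% DMSO. Read-out basis: GFP/RFP fluorescence ratio.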
Rce1 inh – inhibitors of yeast Ras-converting enzyme | Q03530 | yeast membranes, quenched prenylated peptide cleavage fluorescence | calls only | 290,000 compounds, 0.27% hits;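 active = fall in fluorescence gain of 50% or more versus controls, with final raw signal at or below 3038400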;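 note: plate controls were neutral control wells for no effect and wells lacking membranes for full effect; tested at 10 µM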
Yeast UUG start – modulators of start codon recognition fidelity in yeast. S. cerevisiae UUG-firefly luciferase reporter, luminescence/redox ratio. activity score, % at 18.7 µM. 350,000 compounds, 0.13% hits;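 active = replicate mean at a twofold rise or more, about +100% in these data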;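 note: firefly luciferase made from a UUG start codon reports start codon fidelity; reporter light over untreated wells divided by growth signal over untreated wells; some hits fall short of that in this replicate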
CSC inhib – cancer stem cell inhibition; 300,000 compounds, 1.1% hits; inhibition, % at 7.5 µM; cancer stem cell-like cells viability, luminescence;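 active = mean at 75% or more and at least half the replicates too; tested in HMLE shEcad cells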;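 note: 0% = median of negative and 100% = median of positive control wells; the first replicate is given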
MT1-MMP act inh RFP – also measured in MT1-MMP act inh; calls as there; RFP signal change, %; measured here: RFP expression control read;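 0 = vehicle wells; hits needed this value within 50% of zero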
* marks the source's active call; other numbers are inactive results; i = inactive; · = no result given; + = active, no number; & = joins results of further samples.

SMILES	Env fusion inh	PABP polyA inh	eIF4H FP inh	MT1-MMP act inh	MT1-MMP act inh RFP	Rce1 inh	Yeast UUG start	CSC inhib
Cc1oc(-c2ccc(Cl)cc2)nc1CN1CCC(C(=O)NCC2CCCO2)CC1 (configuration not stated)	16	-10	-11	5	0	i	·	6
CCCCn1c(N)c(N(CC(C)C)C(=O)c2cc(-c3ccc(F)cc3)nc3ccccc23)c(=O)[nH]c1=O	·	·	·	-10	-7	i	2	7
COC(=O)CCS(=O)(=O)c1cc(Cl)ccc1Cl	-10	5	-5	3	5	·	-14	-20
COc1ccc(CNC(=O)c2c(N)n(CCCN3CCOCC3)c3nc4ccccc4nc23)cc1	38	19	9	-1	-1	+	-16	83*
O=C(COc1ccc2c(c1)CCC2)NCc1cccc(Cl)c1	12	-7	-6	0	2	i	·	0
COc1ccc2c(c1)c(C(=O)CN1CCC3(CC1)OCCO3)c(C)n2C	·	16	9	-2	0	i	-8	·
CCOC(=O)c1cccc(NC(=O)N[C@@H](C)C(=O)OC)c1	·	-2	6	·	·	i	-1	1
N#C/C(=C(/O)c1ccc([N+](=O)[O-])o1)c1nc2ccccc2[nH]1	i	16	34	-285	-35	i	·	60
COc1cccc2cc(-c3nc(-c4cccs4)cs3)c(=O)oc12	-352	4	18	-1	1	i	-9	-5
CCOCCCNCC(=O)Nc1ccc(OC(F)(F)F)cc1	-105	3	1	3	3	i	-23	-6
Nc1ccccc1SCc1cn2ccccc2n1	-13	9	-10	1	3	i	·	-1
COc1ccc(CN(C)C(=O)c2ccc(Oc3ccccc3)cc2)cc1F	16	3	-9	2	-3	i	-15	40
CCN1CCN(C(=O)/C=C/c2ccc(OC)cc2)CC1	4	-16	-10	-4	1	i	-14	-11
COc1cc(/C=C2\CCC(C3CCCC3)C2=O)ccc1OC(C)C (configuration not stated)	17	12	-6	-10	-8	i	9	31
COC(=O)c1ccccc1NC(=O)CSCC(=O)Nc1ccc(F)cc1	·	-4	-4	5	0	i	9	5
CCOC(=O)C1=C(c2ccccc2)NC(=S)NC1c1cc([N+](=O)[O-])ccc1OC (configuration not stated)	·	1	-7	-1	1	i	-6	-3
COc1ccc(C(=O)N2CCN(C(=O)c3ccc(-c4ccccc4)cc3)CC2)cc1OC	7	-5	-2	2	-1	i	·	-12
CC(=O)Oc1cccc(NC(=O)c2cccc(C(=O)Nc3cccc(OC(C)=O)c3)c2)c1	6	10	-2	1	-1	i	-8	-5
CCCCC(=O)Nc1ccc(C(=O)N2CCN(C)CC2)cc1	8	-4	-4	2	4	i	-22	-12
Cc1c(NC(=O)C2CCCN2S(=O)(=O)c2cccc3nsnc23)cccc1C(=O)O (configuration not stated)	12	3	-3	3	2	i	-15	3
O=C(CN1C(=O)c2ccccc2C1=O)NC1CCS(=O)(=O)C1 (configuration not stated)	i	·	·	-3	2	·	-19	·
CNC(=O)c1csc(Cc2c(Cl)sc3ccc(Cl)cc23)n1	-23	0	4	0	-11	i	11	10
CCNc1nc(NCC)nc(OCC(=O)O)n1	10	-8	1	1	3	i	·	-8
O=C(CSc1nc2ccccc2c(=O)n1Cc1ccco1)c1ccccc1	15	12	-4	-15	-13	i	-17	4
O=C(c1cc2cc(F)ccc2[nH]1)N1CCCC(Nc2ccc(F)cc2)C1 (configuration not stated)	20	-3	-19	2	3	i	-3	7

Three entries from above in another layout.
The line under a structure holds: Env fusion inh, PABP polyA inh, eIF4H FP inh, MT1-MMP act inh, MT1-MMP act inh RFP, Rce1 inh, Yeast UUG start, CSC inhib
Cc1c(NC(=O)C2CCCN2S(=O)(=O)c2cccc3nsnc23)cccc1C(=O)O (configuration not stated)
    12, 3, -3, 3, 2, i, -15, 3
CCCCn1c(N)c(N(CC(C)C)C(=O)c2cc(-c3ccc(F)cc3)nc3ccccc23)c(=O)[nH]c1=O
    ·, ·, ·, -10, -7, i, 2, 7
CC(=O)Oc1cccc(NC(=O)c2cccc(C(=O)Nc3cccc(OC(C)=O)c3)c2)c1
    6, 10, -2, 1, -1, i, -8, -5

Entries listed so far that bear a hit mark in Rce1 inh.
SMILES | Env fusion inh | MT1-MMP act inh | MT1-MMP act inh RFP | Rce1 inh | Yeast UUG start
COc1ccc(CNC(=O)c2c(N)n(CCCN3CCOCC3)c3nc4ccccc4nc23)cc1 | 38 | -1 | -1 | + | -16

Continued:
SMILES	Env fusion inh	PABP polyA inh	eIF4H FP inh	MT1-MMP act inh	MT1-MMP act inh RFP	Rce1 inh	Yeast UUG start	CSC inhib
COc1ccc(CCNC(=O)CN2C(=O)NC3(CCCCC3C)C2=O)cc1 (configuration not stated)	-14	·	·	2	4	·	26	-3
O=C(O)CC1SC(=O)N(Cc2ccccc2)C1=O (configuration not stated)	-41	7	2	4	4	i	·	-7
O=C(Cc1ccccc1)NCC(=O)N1CCCC1	5	0	-24	2	5	·	-1	-5
CC1=C(C(=O)Nc2ccccc2C(=O)NC2CCCCC2C)SCCO1 (configuration not stated)	-3	-4	-13	·	·	i	-4	-21
CCc1nc2scc(-c3ccccc3)c2c(=O)n1N	·	2	-2	-1	1	i	-13	4
Cc1ccc(NC(=O)COC(=O)c2ccc([N+](=O)[O-])o2)cc1S(=O)(=O)N1CCCCC1	-7	15	-6	2	0	i	·	-7
O=C1C(=O)N(CCO)C(c2cccc(F)c2)/C1=C(\O)c1ccc(Cl)cc1 (configuration not stated)	·	-3	4	0	2	i	·	-4
COc1cccc(CNC(=O)CN2C(=O)CSc3ccc(S(=O)(=O)N4CCOCC4)cc32)c1	-1	·	·	2	2	i	-17	-8
Cc1ccc(-n2c(C)n[nH]c2=S)cc1	-22	6	-9	2	3	i	-21	-14
O=C(Cn1nnc2ccccc2c1=O)N[C@@H](Cc1c[nH]c2ccccc12)C(=O)O	-14	-3	-3	3	7	i	4	0
CCOC(=O)COc1ccc2c(C)cc(=O)oc2c1C(=O)c1ccccc1	2	-1	-2	1	0	i	·	-13
O=C(OCC(=O)N1CCc2ccccc21)[C@@H]1CC(O)CN1S(=O)(=O)c1ccc(Cl)cc1 (some centres not stated)	10	·	·	-2	3	·	-3	-20
O=C(CN1CCCCC1)n1c2ccccc2c2ccccc21	-2	4	-7	1	0	i	-10	-16
O=C(Nc1ccc(Cl)cc1)c1csc([C@H]2C[C@H](O)[C@@H](CO)O2)n1	-63	·	·	5	-11	·	12	·
COC(=O)C1=C(C)N=C2SCCC(=O)N2C1c1cccs1 (configuration not stated)	·	-6	-12	3	4	i	-9	·
CCn1cc([N+](=O)[O-])nc1C	-18	13	-4	2	2	i	·	-7
CC1CC(C(F)F)n2nc(C(=O)O)cc2N1 (configuration not stated)	-19	14	4	3	-2	i	-7	0
COc1ccc(C=NNc2nc3c([nH]2)c(=O)n(C)c(=O)n3C)cc1	6	·	·	1	1	·	-4	·
COc1ccc([N+](=O)[O-])cc1NC(=O)Cc1ccc(Cl)cc1	34	8	2	-4	-8	i	·	4
O=C(Nc1ccc(-c2nnc3n2CCCCC3)cc1)c1cc2ccccc2o1	14	-11	-10	-1	-2	i	·	-5
Nc1ncnc2c1ncn2[C@@H]1O[C@H](CNS(=O)(=O)c2cc(S(=O)(=O)c3ccccc3)cs2)[C@@H](O)[C@H]1O	5	·	·	0	-3	·	-15	·
Cc1ccc2c(CC(=O)N3CCc4ccccc43)coc2c1	·	9	1	0	0	i	-18	1
COc1ccccc1CC(=O)NC(=O)c1ccccc1O	11	14	2	-3	2	i	2	-4
CCN(Cc1ccccc1)S(=O)(=O)c1ccc(S(=O)(=O)N(Cc2cccc(OC)c2)CC2CCCO2)cc1 (configuration not stated)	·	16	-3	5	-6	·	0	6
CC(C)CN1C(=O)N(c2ccc(Cl)cc2)C(C)(O)CC1(C)C (configuration not stated)	36	4	-15	2	-2	i	-9	-9
Later entries.
SMILES	Env fusion inh	PABP polyA inh	eIF4H FP inh	MT1-MMP act inh	MT1-MMP act inh RFP	Rce1 inh	Yeast UUG start	CSC inhib
COc1cc(/C=C/C(=O)Nc2ccc(S(=O)(=O)Nc3onc(C)c3C)cc2)cc(OC)c1OC	1	·	·	2	-1	·	-4	·
Cn1c(SCC(=O)N2CCCc3ccccc32)nnc1-c1cccs1	-12	7	-3	-3	-4	i	-13	0
CN(Cc1ccc2nonc2c1)Cc1nc(CC2CC2)no1	-1	-2	-6	-1	-2	i	·	6
O=C(O)COc1ccccc1C=NNC(=O)c1ccc(NS(=O)(=O)c2cccs2)cc1	-8	·	·	2	4	·	10	-21
O=[N+]([O-])c1ccccc1/C=C/CN1CCC(O)CC1	7	5	-4	-1	-5	i	-11	0
C=CCNC(=O)c1onc(CSc2cccc(C)c2)c1C(=O)O	2	-7	-3	-1	2	i	-4	23
N#CCC(=O)N/N=C/c1ccc(N2N=C(c3ccccc3)CC2c2ccccc2)cc1 (configuration not stated)	-7	-9	24	-95	-2	i	-15	·
Cc1cc(NC(=O)CSc2nc3cc4c(cc3c(=O)n2CCc2ccccc2)OCO4)no1	-4	1	2	-5	-4	i	-5	-2
CC1=C(C(=O)N(C)C)CC(CC(=O)NCCCCc2ccccc2)C(=O)N1CCC1=CCCCC1 (configuration not stated)	-91	·	·	-4	1	·	2	·
Cc1onc(-c2ccccc2Cl)c1C(=O)Nc1ccccc1	·	-9	-5	-4	-2	i	-16	8
O=C1N[C@@H](Cc2ccccc2)COC(=O)[C@H](Cc2ccc(F)cc2)C/C=C\C[C@H]1CC(=O)N(CCO)Cc1ccccc1	-58	·	·	-5	-12	·	-4	-2
Cc1cccc(N2CCN(C(=O)c3ccncc3)CC2C)c1 (configuration not stated)	-16	-11	0	1	0	i	-2	0
O=C(c1noc2c1CCCC2)N1CCCCC1	·	-7	3	-3	-1	i	4	-12
COc1cc(C(=O)NCC(=O)OCC(=O)c2cccc3ccccc23)cc(OC)c1OC	-17	-2	0	-3	5	i	-8	-4
CCN1CCc2c(sc(NC(=S)NC(=O)c3ccco3)c2C(N)=O)C1	1	50*	85*	-89	-1	i	-21	-5
CCOc1ccc(S(=O)(=O)N2CCCCC2)cc1NC(=O)CSCc1c(C)noc1C	8	·	·	4	0	i	3	·
COc1ccccc1NC(=O)N(C)C[C@@H]1Oc2ncc(Br)cc2C(=O)N([C@H](C)CO)C[C@@H]1C	-10	·	·	-4	7	·	6&14	·
CC1C(=O)Nc2ccc(S(=O)(=O)N3CCN(c4cccc(C(F)(F)F)c4)CC3)cc2NC1=O (configuration not stated)	3	-3	-2	7	-6	i	-12	2
Cc1ccc(Cn2cccc(NC(=O)NCc3ccccc3)c2=O)cc1	·	-15	4	-21	-28	i	·	3
Cc1cccc(C)c1OC(=O)Cc1ccccc1[N+](=O)[O-]	7	6	2	-1	-2	i	-9	-2
CC(C)Nc1ccc(-n2nc3ccccc3[n+]2[O-])cc1	-23	1	1	2	2	i	-46	3
CCCc1nn(C)c(C(=O)Nc2ccc(C)c(C)c2)c1Cl	-45	4	2	1	2	i	-11	8
C[C@@H]1COC(=O)[C@H](CC(=O)OC(C)(C)C)C/C=C\C[C@H](CC(=O)N(CCO)Cc2ccccc2)C(=O)N1	-27	·	·	-2	0	·	-8	4
CC1CCCN(c2ccc(C(=O)OCn3nnc4ccccc4c3=O)cc2[N+](=O)[O-])C1 (configuration not stated)	4	5	1	3	-2	i	·	-1
CCC(=O)c1ccc(OCC(=O)N(Cc2nnc(-c3ccccc3Cl)o2)C2CC2)cc1	-2	·	·	1	-1	i	·	-14
Cc1cccc(C(=O)O/N=C(\N)c2ccccn2)c1	31	-6	-8	-1	2	i	-91	-5
COc1ccc(C(=O)OCC(=O)c2ccc3[nH]c(=O)[nH]c3c2)c(OC)c1OC	-1	·	·	-2	1	·	-11	0
CC(C)(c1ccccc1)c1ccc(OCCN2CCCC2)cc1	6	6	8	-2	4	i	-4	91*
CNC(=O)c1cc2c(ccc3ccccc32)o1	-75	-6	-3	3	4	i	·	4

Copied from the list.
In PABP polyA inh, `COc1ccc(CNC(=O)c2c(N)n(CCCN3CCOCC3)c3nc4ccccc4nc23)cc1` is entered as 19
In Yeast UUG start, `Cc1cccc(C(=O)O/N=C(\N)c2ccccn2)c1` is entered as -91

These rows are one share of the data, so the mix of outcomes need not match the whole.
